Vaccinia inh: blocks a specific stage of Vaccinia orthopoxvirus infection | activity change (mCherry), % (test concentration not listed) | 0.01% of 89,000 active | Vaccinia-infected cells, mCherry/Venus stage reporter fluorescence; stronger effect = lower value; some inactives read as strong as hits | AID 1053133;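 active means mCherry past -33% and 40 or more points under the early reporter, replicates agreeing; inconclusive means past -33% without that gap or agreement; tested in A549 cells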;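 further: scaled between vehicle wells and reference inhibitor wells; 23 nL library stock went into each well; one replicate is shown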
Vaccinia inh Venus: recorded beside Vaccinia inh, whose call it bears; activity change (Venus), %; measured here: Venus reporter, other viral stage;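 negative = less Venus signal; first of two replicates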
The depositor's hits bear a star; ? = inconclusive; nt = not tested or not shown. These rows are one share of the data, so the mix of outcomes need not match the whole.

SMILES	Vaccinia inh	Vaccinia inh Venus
COCCNC(=O)C[C@@H]1C=C[C@H](NC(=O)NC2CCCC2)[C@@H](CO)O1	6.3	9.3
C[C@@H]1CN([C@H](C)CO)C(=O)c2cc(NC(=O)Nc3ccc(C(F)(F)F)cc3)ccc2O[C@H]1CN(C)S(C)(=O)=O	10.6	1.3
N#C[C@@H]1[C@@H](c2ccc(-c3ccccc3F)cc2)[C@H](CO)N1C(=O)C1CC1	-32.4	-11.9
CCC(=O)N(C)C[C@H]1Oc2cc(C#CCC3CCCC3)ccc2S(=O)(=O)N([C@H](C)CO)C[C@H]1C	?	nt
CCCNC(=O)C[C@@H]1CC[C@@H]2[C@@H](COc3ccc(NC(=O)C4CCCC4)cc3C(=O)N2C)O1	-7.4	-5.5
CN(C)CC#Cc1ccc([C@H]2[C@@H](CO)N3CCCCN(C(=O)Nc4ccccc4F)C[C@@H]23)cc1	11.6	4.8
COc1ccc(NC(=O)Nc2ccc3c(c2)CC(=O)N([C@H](C)CO)C[C@H](C)[C@@H](CN(C)Cc2ccncc2)O3)cc1	15.6	15.1
CCC(=O)N1C[C@H](C)[C@H](OC)CN(C)C(=O)c2ccc(NC(=O)c3ccc(F)cc3)cc2OC[C@@H]1C	0.0	-0.4
O=C(C[C@H]1C[C@H]2c3cc(NC(=O)Nc4ccc(C(F)(F)F)cc4)ccc3O[C@H]2[C@H](CO)O1)NCc1ccccn1	-6.8	-2.5
C[C@@H]1CN([C@@H](C)CO)C(=O)c2cc(NS(=O)(=O)c3ccccc3)ccc2O[C@@H]1CN(C)S(C)(=O)=O	1.8	0.8
C[C@@H]1CN([C@@H](C)CO)C(=O)Cc2cc(NC(=O)C3CCCCC3)ccc2O[C@H]1CN(C)C(=O)Nc1cccc2ccccc12	11.0	14.4
CO[C@H]1CN(C)C(=O)c2cc(NS(C)(=O)=O)ccc2OC[C@H](C)N(S(C)(=O)=O)C[C@@H]1C	-6.4	0.4
O=C(CCN1CCCCC1)NCC[C@@H]1CC[C@@H](NS(=O)(=O)c2cccc(Cl)c2)[C@@H](CO)O1	5.6	12.5
CC(C)NC(=O)Nc1ccc2c(c1)C(=O)N([C@H](C)CO)C[C@@H](C)[C@H](CN(C)Cc1ccc(C(=O)O)cc1)OCCCC[C@H](C)O2	48.0	18.3
COc1ccc(S(=O)(=O)N(C)C[C@@H]2OCCCC[C@@H](C)Oc3ccc(NS(=O)(=O)c4ccc(F)cc4)cc3C(=O)N([C@@H](C)CO)C[C@H]2C)cc1	-32.2	-18.8
COc1ccc2c3c(n(C)c2c1)[C@H](CO)N(C(=O)C1CCCC1)CC31CCN(C)CC1	-17.7	-9.6
COc1ccc(S(=O)(=O)Nc2ccc3c(c2)CC(=O)N([C@@H](C)CO)C[C@H](C)[C@@H](CN(C)C(=O)Nc2ccc(C(F)(F)F)cc2)O3)cc1	-4.1	10.4
CC(C)(O)C#Cc1ccc([C@H]2[C@H](CO)N3CCCCN(C(=O)c4ccncc4)C[C@@H]23)cc1	27.9	15.2
C[C@@H]1CN([C@@H](C)CO)C(=O)Cc2cc(NS(=O)(=O)c3cccs3)ccc2O[C@@H]1CN(C)C	-0.5	4.6
C[C@@H]1CN([C@@H](C)CO)C(=O)Cc2cc(NS(C)(=O)=O)ccc2O[C@@H]1CN(C)C(=O)Nc1ccccc1	8.0	-0.2
C[C@H](CO)N1C[C@H](C)[C@H](CN(C)C(=O)Nc2ccc3c(c2)OCO3)Oc2c(NS(=O)(=O)c3cccs3)cccc2C1=O	10.0	7.8
C[C@H]1CCCCO[C@@H](CN(C)C(=O)c2ccccc2)[C@@H](C)CN([C@@H](C)CO)C(=O)c2cc(NC(=O)Nc3ccc(F)cc3)ccc2O1	-9.3	-10.0
CO[C@@H]1CC[C@@H]2CCN(C)C(=O)C[C@@H](c3ccccc3)CN(C)C(=O)c3cccc(C#N)c3OC[C@H]1O2	5.5	2.7
C[C@@H](NC(=O)C[C@H]1C[C@H]2c3cc(NC(=O)C4CCOCC4)ccc3O[C@H]2[C@@H](CO)O1)c1ccccc1	-5.9	-5.3
CCCC(=O)Nc1ccc2c(c1)C(=O)N(C)C[C@@H](OC)[C@@H](C)CN(Cc1ccccn1)[C@@H](C)CO2	-4.0	-7.1

New compounds follow
SMILES	Vaccinia inh	Vaccinia inh Venus
CCC(=O)N(C)C[C@@H]1Oc2ncc(C#Cc3ccccc3)cc2C(=O)N([C@@H](C)CO)C[C@H]1C	8.7	-2.9
C[C@@H]1CN([C@@H](C)CO)C(=O)c2ccccc2-c2ccccc2CO[C@@H]1CN(C)C(=O)Nc1cccc(F)c1	0.2	0.7
COc1ccc(NC(=O)Nc2ccc3c(c2)[C@H]2C[C@H](CC(=O)NCc4ccncc4)O[C@H](CO)[C@H]2O3)cc1	7.6	6.8
C[C@@H]1CCCCO[C@@H](CN(C)Cc2ccccc2)[C@@H](C)CN([C@@H](C)CO)C(=O)c2cc(NC(=O)Cc3ccccc3)ccc2O1	?	nt
CO[C@H]1CN(C)C(=O)c2cc(NC(C)=O)ccc2OC[C@H](C)N(C(=O)C2CC2)C[C@@H]1C	4.3	7.3
Cc1ccccc1S(=O)(=O)N1CC(=O)N2[C@H](CO)[C@H](c3ccc(C#CCC(C)C)cc3)[C@H]2C1	-11.6	-3.1
CO[C@H]1CN(C)C(=O)c2ccc(NC(=O)C3CCC3)cc2OC[C@H](C)N(Cc2ccccn2)C[C@H]1C	1.6	-4.5
CC(C)NC(=O)N(C)C[C@@H]1Oc2cc(-c3cncnc3)ccc2S(=O)(=O)N([C@H](C)CO)C[C@H]1C	16.6	6.8
O=C(C[C@@H]1C=C[C@@H](NC(=O)c2ccncc2)[C@@H](CO)O1)NCC1CC1	-0.1	1.7
CCCNC(=O)N1C[C@H](O)COC[C@@H]2O[C@@H](CC(=O)N3CCCCC3)CC[C@H]21	3.8	3.9
C[C@@H]1CN([C@@H](C)CO)S(=O)(=O)c2ccc(C#CC3CC3)cc2O[C@H]1CN(C)C(=O)c1cccnc1	-7.4	-7.7
CCC(=O)N(C)C[C@H]1Oc2cc(C3=CCCC3)ccc2S(=O)(=O)N([C@@H](C)CO)C[C@@H]1C	-1.7	1.5
C[C@@H]1CCCCO[C@H](CN(C)C(=O)Cc2ccccc2)[C@H](C)CN([C@H](C)CO)C(=O)c2cc(NC(=O)Nc3ccc(F)cc3)ccc2O1	-25.3	-19.1
C/C=C/c1ccc2c(c1)O[C@H](CN(C)Cc1ccncc1)[C@@H](C)CN([C@H](C)CO)S2(=O)=O	11.7	10.2
C[C@H](CO)N1C[C@H](C)[C@@H](CN(C)C(=O)c2ccccc2)OCCCC[C@H](C)Oc2ccc(NC(=O)Cc3ccccc3)cc2C1=O	-8.2	-8.5
CCC(=O)N(CC)C[C@H]1[C@H](c2ccc(-c3cccnc3)cc2)[C@@H](CO)N1C(C)=O	6.5	10.2
O=C(N[C@@H]1CC[C@H](CCNC(=O)C2CCCCC2)O[C@@H]1CO)c1ccccn1	0.5	5.1
CN1C(=O)c2cc(NS(=O)(=O)c3cccc(F)c3)ccc2OC[C@H]2O[C@H](CC(=O)NCCN3CCCCC3)CC[C@@H]21	-6.0	-3.3
CO[C@H]1CN(C)C(=O)c2ccc(NC(=O)c3cc(C)on3)cc2OC[C@@H](C)N(C(=O)C2CC2)C[C@H]1C	2.7	1.2
COc1cccc(NC(=O)N[C@H]2C=C[C@H](CC(=O)NCc3ccccn3)O[C@@H]2CO)c1	-14.2	-10.7
C[C@H](CO)N1C[C@H](C)[C@H](CN(C)C(=O)Nc2ccccc2)Oc2ncc(C#Cc3ccccc3)cc2C1=O	?	nt
COc1cccc(NC(=O)N[C@@H]2CC[C@@H](CC(=O)N3CCN(C)CC3)O[C@H]2CO)c1	22.5	8.3
C[C@@H]1CN([C@H](C)CO)C(=O)Cc2cc(NS(=O)(=O)c3cn(C)cn3)ccc2O[C@@H]1CN(C)C(=O)Nc1ccc(C(F)(F)F)cc1	-1.0	-5.3
COc1ccc(NC(=O)N(C)C[C@H]2Oc3cc(-c4ccc(C)cc4)ccc3S(=O)(=O)N([C@@H](C)CO)C[C@@H]2C)cc1	?	nt
COc1cccc(S(=O)(=O)N2C[C@@H](O)COC[C@H]3O[C@H](CC(=O)Nc4ccccc4)CC[C@@H]32)c1	-1.1	5.5

Carrying on:
SMILES	Vaccinia inh	Vaccinia inh Venus
CO[C@H]1CN(C)C(=O)c2ccc(NS(C)(=O)=O)cc2OC[C@@H](C)N(Cc2cncnc2)C[C@H]1C	10.6	7.0
O=C(C[C@@H]1CC[C@@H]2[C@H](COC[C@@H](O)CN2C(=O)Nc2ccc(Cl)c(Cl)c2)O1)NCc1ccccc1	?	nt
C[C@H](CO)N1C[C@H](C)[C@@H](CN(C)S(=O)(=O)c2ccc(Cl)cc2)OCc2ccccc2-c2ccccc2C1=O	?	nt
C[C@H](CO)N1C[C@H](C)[C@H](CN(C)Cc2ccncc2)Oc2c(NC(=O)c3nc4ccccc4s3)cccc2C1=O	7.9	7.1
CCCC#Cc1ccc2c(c1)[C@@H]1[C@@H](CCN1S(=O)(=O)c1ccccc1F)[C@@H](CO)N2	6.7	7.4
C[C@H]1CN([C@@H](C)CO)C(=O)Cc2cc(NC(=O)C3CCCCC3)ccc2O[C@H]1CN(C)C(=O)Nc1ccc2c(c1)OCO2	2.0	15.2
CCCC(=O)Nc1ccc2c(c1)C(=O)N(C)C[C@H](OC)[C@H](C)CN(C(=O)C1CCCC1)[C@@H](C)CO2	8.5	11.0
C[C@H](CO)N1C[C@H](C)[C@@H](CN(C)C(=O)CC2CC2)Oc2ncc(C#CC3(O)CCCC3)cc2C1=O	4.7	-2.1
COCC#Cc1ccc([C@@H]2[C@H]3CN(C(=O)C4CCCC4)CC(=O)N3[C@H]2CO)cc1	7.6	8.1
C[C@@H]1CN([C@@H](C)CO)C(=O)c2ccccc2-c2ccccc2CO[C@@H]1CN(C)C(=O)c1ccncc1	-7.5	-6.2
COc1ccc(NC(=O)N[C@@H]2CC[C@H](CCNC(=O)c3ccccc3F)O[C@@H]2CO)cc1	-5.1	9.1
O=C(Cc1ccccn1)NCC[C@H]1CC[C@H](NC(=O)c2ccccc2F)[C@H](CO)O1	6.0	10.4
Cc1cccc2c3c([nH]c12)[C@H]1CCC(=O)N1CC3	29.7	27.9
Cc1ccc(S(=O)(=O)Nc2cccc3c2O[C@@H](CN(C)C(=O)Nc2ccccc2)[C@@H](C)CN([C@H](C)CO)C3=O)cc1	-9.2	-8.0
O=C(c1ccccc1)N1C[C@@H]2[C@H](c3ccccc31)[C@@H](CO)N2C(=O)Nc1ccccc1Cl	12.6	8.5
COCCNC(=O)C[C@H]1C[C@H]2c3cc(NC(=O)CN(C)C)ccc3O[C@H]2[C@H](CO)O1	1.4	7.9
C[C@H]1CN([C@@H](C)CO)C(=O)c2cccc(NC(=O)Nc3ccc(C(F)(F)F)cc3)c2O[C@@H]1CN(C)C(=O)Nc1ccccc1	?	nt
COc1ccccc1C#Cc1ccc([C@H]2[C@H](CO)N3CCCCN(CCC(F)(F)F)C[C@@H]23)cc1	?	nt
CCCNC(=O)N1CC2(CCN(C(=O)c3cnccn3)CC2)c2c([nH]c3cc(OC)ccc23)[C@@H]1CO	9.7	5.5
COCC#Cc1ccc2c(c1)O[C@@H](CN(C)Cc1ccccc1F)[C@H](C)CN([C@@H](C)CO)S2(=O)=O	?	nt
C[C@@H]1CN([C@H](C)CO)C(=O)Cc2cc(NC(=O)Nc3ccc(C(F)(F)F)cc3)ccc2O[C@H]1CN(C)Cc1ccc(C(F)(F)F)cc1	-26.5	-16.3
C[C@@H](NC(=O)C[C@@H]1CC[C@H]2[C@@H](COC[C@@H](O)CN2C(=O)Nc2ccccc2)O1)c1ccccc1	?	nt
CN(C)c1ccc2c(c1)[C@H]1C[C@H](CC(=O)NCc3ccccc3)O[C@H](CO)[C@H]1O2	11.5	5.7
CCNC(=O)C[C@@H]1CC[C@H](NC(=O)NC2CCCCC2)[C@H](CO)O1	4.1	1.6
CCCC#Cc1ccc2c(c1)O[C@@H](CN(C)C)[C@@H](C)CN([C@H](C)CO)S2(=O)=O	-11.8	6.1
CN1[C@@H]2c3ccc(-c4ccc(F)cc4)c(=O)n3C[C@@H]2[C@@H](CO)[C@@H]1C(=O)NCCN1CCCCC1	-3.7	0.8
O=C(C[C@@H]1CC[C@H](NC(=O)CN2CCOCC2)[C@H](CO)O1)NCc1cccc(F)c1	-4.1	-0.8
CO[C@H]1CN(C)C(=O)c2ccc(NC(=O)C3CCOCC3)cc2OC[C@@H](C)N(Cc2cccnc2)C[C@H]1C	5.3	-2.3

Copied from the listing, ten compounds:
SMILES	Vaccinia inh	Vaccinia inh Venus
CCCNC(=O)N1CC2(CCN(C(=O)c3cnccn3)CC2)c2c([nH]c3cc(OC)ccc23)[C@@H]1CO	9.7	5.5
COCC#Cc1ccc2c(c1)O[C@@H](CN(C)Cc1ccccc1F)[C@H](C)CN([C@@H](C)CO)S2(=O)=O	?	nt
C[C@@H]1CN([C@H](C)CO)C(=O)Cc2cc(NC(=O)Nc3ccc(C(F)(F)F)cc3)ccc2O[C@H]1CN(C)Cc1ccc(C(F)(F)F)cc1	-26.5	-16.3
C[C@@H](NC(=O)C[C@@H]1CC[C@H]2[C@@H](COC[C@@H](O)CN2C(=O)Nc2ccccc2)O1)c1ccccc1	?	nt
CN(C)c1ccc2c(c1)[C@H]1C[C@H](CC(=O)NCc3ccccc3)O[C@H](CO)[C@H]1O2	11.5	5.7
CCNC(=O)C[C@@H]1CC[C@H](NC(=O)NC2CCCCC2)[C@H](CO)O1	4.1	1.6
CCCC#Cc1ccc2c(c1)O[C@@H](CN(C)C)[C@@H](C)CN([C@H](C)CO)S2(=O)=O	-11.8	6.1
CN1[C@@H]2c3ccc(-c4ccc(F)cc4)c(=O)n3C[C@@H]2[C@@H](CO)[C@@H]1C(=O)NCCN1CCCCC1	-3.7	0.8
O=C(C[C@@H]1CC[C@H](NC(=O)CN2CCOCC2)[C@H](CO)O1)NCc1cccc(F)c1	-4.1	-0.8
CO[C@H]1CN(C)C(=O)c2ccc(NC(=O)C3CCOCC3)cc2OC[C@@H](C)N(Cc2cccnc2)C[C@H]1C	5.3	-2.3
